Compound activity (PubChem BioAssay)
ALR inh: human ALR oxidase inhibition via reduced H2O2; P55789; purified ALR, DTT oxidation, H2O2 HRP-luminol luminescence; inhibition, % (concentration not given with the values); hit rate 3.8% among 290,000;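 active = mean and each replicate at 75% or more; inconclusive = only one of the two met; inactive = neither met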;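 note: stock transfer was 7.5 nL into about 7.5 µL; 0% = neutral wells and 100% = wells with inactivated enzyme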
Target sequence (P55789 whole entry, looked up): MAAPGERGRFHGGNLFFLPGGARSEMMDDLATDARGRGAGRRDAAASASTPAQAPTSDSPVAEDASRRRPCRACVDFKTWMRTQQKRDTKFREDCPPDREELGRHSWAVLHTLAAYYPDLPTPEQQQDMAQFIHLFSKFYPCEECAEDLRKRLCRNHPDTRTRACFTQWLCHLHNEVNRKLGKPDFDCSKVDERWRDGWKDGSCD
Calb FLC: C. albicans growth modulation with fluconazole; C. albicans CaCi-2 (fluconazole-resistant clinical isolate) + fluconazole, Alamar Blue growth, 48 h; growth inhibition, % (test concentration not listed); hit rate 0.57% among 300,000;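 active = most replicates above 75%; inconclusive = exactly half above 75%; inactive = most below 75%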;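 note: all wells also contain fluconazole at 8 µg/ml as a sub-toxic cotreatment; 0% = median of DMSO wells and 100% = median of geldanamycin control wells; wells of about 8 µL received 7.5 nL stock; the first replicate is given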
Beta cell apopt: blocks beta cell apoptosis; protection from apoptosis, % (no concentration beside the values); INS-1E cytokine-induced death, ATP luminescence, 48 h; percent of positive-control rescue, neutral wells zero; hit rate 0.8% among 300,000;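 active = all replicates at 75% or more, or half of them and the mean; inconclusive = half reach 75% but not the mean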;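 note: 0% = cytokine-treated negative control wells and 100% = positive control rescue; higher means more ATP so stronger rescue from cytokine killing; wells of about 40 µL received 100 nL stock; the first replicate is given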
FGF22 binding: binders of recombinant human FGF22 by thermal shift | Q9HCT0 | SYPRO orange fluorescence; percent of sucrose octasulfate shift, DMSO zero | calls only at 9.99 µM | hit rate 1.5% among 340,000;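 active = melting point raised past a set limit in the mean and every replicate; inconclusive = no clear call; three in four hits are not shown here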
Target sequence (Q9HCT0 whole entry, looked up): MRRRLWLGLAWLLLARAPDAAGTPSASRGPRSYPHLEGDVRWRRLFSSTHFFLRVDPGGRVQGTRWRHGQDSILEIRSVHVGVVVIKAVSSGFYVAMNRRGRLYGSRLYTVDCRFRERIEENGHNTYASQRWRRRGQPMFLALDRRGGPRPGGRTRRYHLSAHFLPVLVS
RanGTP-Impb inh: disruptors of Ran-importin-beta complex formation – biochemical, FRET, CFP-Ran, YFP-importin-beta, homogeneous, primary screen; hit rate 1.1% among 300,000; AID 2216; cell-free CFP-Ran/YFP-importin-beta FRET ratio; inhibition, % (concentration not given with the values);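 active = most replicates above 15%; inconclusive = exactly half above 15%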;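 note: 0% = DMSO wells and 100% = Ran loaded with GDP instead of GTP; wells of about 40 µL received 100 nL stock; the first replicate is given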
rRNA inh HTS: inhibits bacterial ribosomal RNA function over humanized ribosomes; E. coli WT GFP vs humanized-ribosome RFP mutants, fluorescence, 24 h; hits give low values; DMSO median 0, no signal -100; GFP signal change (wild-type ribosome), % (no concentration beside the values); hit rate 1.6% among 350,000; AID 720706;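 active = significant combined selectivity score with lowered wild-type GFP, culture density cut under 30%, mutant RFP and density less affected; inactive = any of these conditions unmet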; note: one replicate is shown; some compounds called inactive have numbers as strong as hits
MLL AF4-AF9 inh: blocks AF4 peptide binding to human AF9 | P42568 | AlphaScreen, biotin-AF4 peptide binding to FLAG-AF9 | inhibition, % at 10 µM | hit rate 0.47% among 350,000 | AID 651704;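 active = every replicate reaching a set inhibition limit, whatever the replicate mean, cut at about 25% in these data; inconclusive = mean inhibition reaches that limit but some replicates miss it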;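 note: 0% = plate neutral control median and 100% = total signal loss; the record names both 10 and 1 µM as test concentration; the first replicate is given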
Target sequence (P42568 whole entry, looked up): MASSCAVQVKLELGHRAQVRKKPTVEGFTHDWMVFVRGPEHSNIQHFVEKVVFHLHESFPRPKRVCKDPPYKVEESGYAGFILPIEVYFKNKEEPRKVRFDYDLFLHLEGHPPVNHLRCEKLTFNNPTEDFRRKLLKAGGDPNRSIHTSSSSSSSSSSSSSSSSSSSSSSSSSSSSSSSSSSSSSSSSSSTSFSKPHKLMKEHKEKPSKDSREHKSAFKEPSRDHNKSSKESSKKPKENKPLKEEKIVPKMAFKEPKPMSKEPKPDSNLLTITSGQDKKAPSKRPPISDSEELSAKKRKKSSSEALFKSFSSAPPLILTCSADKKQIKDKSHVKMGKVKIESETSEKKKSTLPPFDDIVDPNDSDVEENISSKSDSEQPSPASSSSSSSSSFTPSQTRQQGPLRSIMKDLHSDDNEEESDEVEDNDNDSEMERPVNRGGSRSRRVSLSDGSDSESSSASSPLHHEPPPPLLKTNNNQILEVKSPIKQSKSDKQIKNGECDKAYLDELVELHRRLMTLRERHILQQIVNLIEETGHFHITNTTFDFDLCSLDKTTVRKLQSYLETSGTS
T cruzi inh: blocks replication of Trypanosoma cruzi. T. cruzi beta-gal in NIH3T3, luminescence, 90 h. inhibition, % (concentration not given with the values). hit rate 1.4% among 300,000;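 active = mean inhibition across valid replicates above about 55%, limit read from the data; inconclusive = mean below that limit but half or more replicates reach it; inactive = mean below it, under half of replicates reach it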;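 note: signal also drops with host cell toxicity which is not excluded here; 0% = plate median of DMSO wells and 100% = zero luminescence signal; higher percent means less beta-gal luminescence so fewer parasites; stock transfer was 50 nL into about 50 µL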
rRNA inh HTS OD600: also measured in rRNA inh HTS; calls as there; OD600 change, %; measured here: OD600 growth;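 optical density of the mix in the first replicate; 0 = DMSO median and -100 = no signal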
rRNA inh HTS RFP: second read-out of rRNA inh HTS, no call of its own (marks repeat the call); RFP signal change, %; measured here: RFP humanized mutant strains;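 first replicate; 0 = DMSO median and -100 = no signal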
An asterisk follows results filed as active; i = inactive; u = inconclusive; x = no result given; & = joins results of further samples. Not all compounds are listed; count on the stated rates, not on these rows.

SMILES	ALR inh	Calb FLC	Beta cell apopt	FGF22 binding	RanGTP-Impb inh	rRNA inh HTS	rRNA inh HTS OD600	rRNA inh HTS RFP	MLL AF4-AF9 inh	T cruzi inh
CC(=O)Nc1ccc2c(c1)c1ccccc1n2C(C)=O	-20.5	22.2	1.7	x	-1.9	x	x	x	x	17.4
CN(C)CCCNc1ccc(-c2n[nH]c(=O)c3ccccc23)cc1[N+](=O)[O-]	-74.4	1.6	11.7	i	-0.8	x	x	x	10.0	48.1
COc1ccc(/C=N/NC(=O)Cn2cnc3ccccc3c2=O)cc1	-7.8	-4.2	-0.5	x	2.4	x	x	x	x	-6.9
COc1ccc(CNS(=O)(=O)c2ccc(S(=O)(=O)N3CCCCC3)cc2)cc1	0.9	12.9	-2.1	x	-1.5	x	x	x	x	-3.4
Cc1cc2c(cc1S(=O)(=O)CCC(=O)NCCc1ccccc1)OCC(=O)N2	-3.3	-3.9	-1.2	i	-1.2	-2.7	12.2	5.4	4.8	-1.9
Cn1c(CSCc2ccc(F)cc2)n[nH]c1=S	6.5	-5.5	-8.6	i	0.4	7.3	2.0	1.2	-17.4	-4.3
Cc1cc2ccccn2c1C(=O)c1ccncc1	-3.2	-2.5	-3.1	x	7.3	x	x	x	x	-13.7
O=C1OC(Nc2cc(Br)cc3cccnc23)c2ccccc21 (stereo not given)	19.9	11.5	-6.3	i	0.0	5.7	4.9	7.5	-7.1	-11.4
Cc1cccc(NC(=O)CCCc2ccccc2)c1	-7.9	-4.7	-1.7	x	-2.3	4.9	2.8	-3.4	-32.4	1.0
Cc1ccc(Nc2nc(CSc3nnc(-c4ccncc4)n3C)cs2)cc1	41.6	-0.7	6.3	x	0.9	x	x	x	x	48.6
O=C(Cn1nc(C(F)F)cc1C1CC1)N1CCCC1	-8.8	3.0	2.0	i	-1.1	5.6	8.5	0.1	1.9	-9.7
COc1ccc(NC(=O)c2cc(S(=O)(=O)N3CCS(=O)(=O)CC3)ccc2Cl)cc1	2.3	1.2	-1.9	x	4.3	x	x	x	x	-8.3
COc1ccc2[nH]c(C(=O)Nc3cccc(C)n3)cc2c1	-6.7	-1.2	x	i	-4.2	-10.7	-5.3	-0.9	-3.6	1.9
O=C(CSc1ncnc2ccccc12)NC1CCS(=O)(=O)C1 (stereo not given)	4.3	x	-2.9	i	x	14.4	9.4	0.8	-0.5	x
O=C(NNC(=O)c1cc2cc(OC(F)(F)F)ccc2[nH]1)c1cccc(C(F)(F)F)c1	-7.4	-4.1	1.8	i	3.1	-21.1*	-12.4*	-5.0*	1.6	-24.3
OC1CCCN(CC(O)COC(c2ccccc2)c2ccccc2)C1 (stereo not given)	-3.7	3.6	-6.3	i	-4.5	9.3	3.8	-4.3	4.0	-2.3
COC(=O)CN(c1nc(C)c(Br)c(OC)n1)S(=O)(=O)c1ccc(C)cc1	-21.1	1.9	-0.1	x	u	x	x	x	x	16.0
COc1cc(C)ccc1OCC(=O)NCC1CCCO1 (stereo not given)	1.7	x	-3.4	i	x	3.3	3.1	3.7	9.1	x
N#Cc1cccnc1N1CCC(C(N)=O)CC1	-8.7	6.4	1.6	i	3.3	16.4	18.0	1.0	-1.0	-9.7
CN(C(=O)c1cccc(COc2ccc(Cl)cc2Cl)c1)c1ccccc1	-38.1	17.9	-7.7	x	2.7	x	x	x	x	20.1
Cn1c(=O)c2c(nc(CN3CCN(C(=O)c4ccco4)CC3)n2CCc2ccccc2)n(C)c1=O	8.4	0.2	1.5	x	3.3	x	x	x	x	10.8
CCC(=O)c1ccc(/C=C/c2nc3ccccc3n2C)o1	11.0	1.5	-7.3	i	-28.4	29.3	18.4	7.6	-4.0	6.7
CCOC(=O)N1CCN(C(=O)c2oc3ccc(S(=O)(=O)N(CC)CC)cc3c2C)CC1	-4.7	6.6	-5.2	i	3.7	3.5	-2.5	3.0	-1.0	12.3
COC(=O)c1ccccc1NC(=O)c1sc(=S)n(C)c1N	42.5	x	-2.5	x	-1.9	x	x	x	x	4.0
O=C(O)c1cc(-c2ccccc2)n(-c2ccc(Cl)cc2)n1	4.1	6.1	-3.8	x	0.6	-25.4	-41.2	-10.6	1.0	5.8
Cc1ccc(C(=O)OCc2nc(N)nc(Nc3ccccc3C)n2)cc1	0.9	3.3	6.9	x	-0.3	x	x	x	x	-2.5
COc1cccc(NC(=O)CN(C)C(=O)/C=C/c2cn(-c3ccccc3)nc2-c2ccc(C)cc2)c1	-7.6	-1.0	x	i	u	0.2	9.7	1.7	-2.4	44.2
N=c1c(S(=O)(=O)c2ccc(Br)cc2)cc2c(=O)n3ccccc3nc2n1C1CCCCC1	-1.0	-1.1	-2.5	i	21.8*	4.5	2.8	0.4	-17.3	28.7
O=C(O)c1ccc(CSc2nnnn2-c2ccc(F)cc2)cc1	1.7	-1.7	1.6	i	-1.0	4.3	-2.9	0.2	2.9	-10.8
COc1ccc(-n2c(=S)[nH]c3cc(C(=O)NCCCN4CCOCC4)ccc3c2=O)c(OC)c1	9.7	-16.8	-4.4	i	1.9	10.1	-2.4	-0.2	-4.7	6.8
COc1ccc(CNCC(O)(c2ccccc2)c2ccc(Cl)cc2)cc1 (stereo not given)	-6.3	-20.0	8.3	x	-2.4	x	x	x	x	29.9
O=C(N/N=C/C(Br)=C\c1ccccc1)c1cccs1	-8.8	1.1	11.5	i	-2.5	-12.4	-2.3	-0.3	3.1	-21.2
COc1ccc(C2CC(c3cccc(Cl)c3)n3nc(N)nc3N2)cc1 (stereo not given)	-4.6	3.4	1.3	i	-3.4	1.9	19.9	1.6	0.7	4.3
COC(=O)c1ccc(-c2noc(CN(Cc3ccncc3)CC3CCCO3)n2)cc1 (stereo not given)	-11.9	-7.3	-4.6	i	-1.5	-5.0	-7.8	-1.2	0.9	57.1*
COCC1CCN(c2nc3nonc3nc2N2CCSCC2)C1 (stereo not given)	-4.4	-2.9	-2.0	i	0.8	17.5	12.7	-0.4	-0.5	-2.7
O=C(COC(=O)c1ccc(S(=O)(=O)C(F)F)cc1)Nc1cccnc1Cl	-19.7	3.5	-1.2	i	4.7	8.4	5.0	-2.2	-0.3	-2.2
CCC(C)c1ccc(NC(=O)N2CCOCC2)cc1 (stereo not given)	1.3	-0.4	1.0	i	7.1	1.6	9.7	-3.0	2.8	-9.4
COc1ccc(S(=O)(=O)N(CC(=O)N2CCOCC2)Cc2ccccc2)cc1C	-1.4	31.6	-2.3	x	-2.2	x	x	x	x	-1.3
CCCNC(=O)CCc1c(C)nc2c(c(C)nn2-c2ccc(C)cc2)c1C	-1.3	25.6	1.5	i	-0.2	5.0	13.9	-3.5	-0.9	63.7*
Cn1cccc1C(=O)NCc1ccc(Cl)cc1	-10.7	-8.0	-10.0	i	2.3	6.5	2.9	-0.2	5.8	-3.5
Cc1ccc(-n2c(SCC(=O)NCc3ccco3)nc3c(sc4ccccc43)c2=O)cc1	-19.8	19.0	7.1	i	4.5	-11.9	0.0	24.4	2.7	17.8
CCn1c(SCc2nc(-c3ccc(Cl)cc3)no2)nnc1-c1ccco1	-12.3	-6.3	1.5	x	-0.9	x	x	x	x	8.0
CCCS(=O)(=O)N1CCN(Cc2ccccc2[N+](=O)[O-])CC1	-1.2	3.4	-4.7	i	5.0	-8.4	-2.8	-1.7	0.8	0.2
O=C(CSc1nnc(COc2cccc3ccccc23)o1)N1c2ccccc2CCc2ccccc21	-0.6	-12.6	8.4	x	4.6	x	x	x	x	44.4
O=C(NCc1cccs1)C1CCC(=O)N(Cc2cccc(C(F)(F)F)c2)C1 (stereo not given)	-3.1	2.0	-5.8	i	5.8	7.0	4.4	3.6	-1.4	-13.4
COc1ccc(NC(=O)CS(=O)(=O)c2ccc(C)cc2)c(OC)c1	-8.8	28.9	x	i	1.5	4.0	5.2	3.2	0.8	-24.2
COC(=O)Nc1nnc(CCc2ccccc2)s1	-2.4	-3.9	-1.8	x	4.7	x	x	x	x	-16.2
Cc1ccc(C)c(N2CCN(C(=O)CN(C)S(=O)(=O)c3cnc[nH]3)CC2)c1	10.6	-4.0	-1.6	x	0.5	x	x	x	x	-1.5
CCn1c(NC(=O)c2ccc(C)cc2)c2ccccc2nc1=O	95.4*	-2.3	-5.8	x	-2.4	x	x	x	x	-0.6
Cc1ccc(C2CC(=O)N(c3ccc(F)cc3)C3=C2C(=O)CCC3)cc1 (stereo not given)	-21.1	14.2	-3.5	x	5.1	x	x	x	x	-5.7
CCOC(=O)c1ccccc1Cc1nc2ccccc2c(=O)[nH]1	-12.2	7.9	-0.1	i	u	-3.4	-8.2	-5.7	1.8	-35.1
Cc1cc(C)c(C(N)=O)c(NCCc2ccccc2)n1	-31.6	-9.6	2.2	x	3.7	x	x	x	x	x
COc1ccc(CNC(=O)COc2cccnc2[N+](=O)[O-])cc1OC	12.4	-2.8	-3.0	i	-0.1	11.2	20.0	3.0	1.0	14.8
CCCC(C(=O)NC1CCCC1)N(CC1CCCO1)C(=O)CNS(=O)(=O)c1ccccc1 (stereo not given)	x	2.3	-8.0	i	2.6	-3.0	1.5	0.1	0.7	6.9
CCCCCCn1c(N2CCC(C(N)=O)CC2)nc2c1c(=O)n(C)c(=O)n2C	-0.1	7.1	x	x	1.7	x	x	x	x	12.0
CC(C)(CNS(C)(=O)=O)SCc1ccc(Cl)cc1	-3.8	-20.1	-7.9	i	1.0	-31.6*	-24.0*	-2.9*	-0.7	4.7
Cc1ccccc1Nc1nnc(SCC(=O)c2ccc(O)cc2O)s1	x	-0.8	0.8	i	0.8	-1.5	-1.2	5.0	-2.1	0.0
O=C1/C(=C\c2ccc(Br)cc2)SC(=S)N1NS(=O)(=O)c1ccccc1	x	71.0	-6.1	i	0.2	7.2	19.1	1.4	-0.4	-5.8
COC(=O)c1ccc(NC(=O)CSCc2ccccc2)cc1	98.6*	-5.4	x	x	u	x	x	x	x	-12.6
CCN(CC(=O)NC1CC1)S(=O)(=O)c1ccc(OC)cc1	-6.6	-10.1	-4.7	i	-2.4	8.1	16.8	1.7	-0.8	-5.7
Going on with the list:
SMILES	ALR inh	Calb FLC	Beta cell apopt	FGF22 binding	RanGTP-Impb inh	rRNA inh HTS	rRNA inh HTS OD600	rRNA inh HTS RFP	MLL AF4-AF9 inh	T cruzi inh
CCC(C)c1ccc(N(CC(=O)NC(C)(C)C)C(=O)CNC(=O)c2cccs2)cc1 (stereo not given)	6.4	0.3	-1.6	i	-1.6	9.8	8.6	-0.6	-0.6	38.7
COc1ccc(N(CC(=O)NC2CCCCCC2)S(=O)(=O)c2ccc(C)cc2)cc1OC	-9.5	-0.4	x	i	-0.1	5.3	17.5	-0.6	-1.3	9.8
C[C@H](CO)N1C[C@H](C)[C@@H](CN(C)S(=O)(=O)c2cccs2)Oc2c(NC(=O)c3ccncc3)cccc2C1=O	-2.5	x	0.4	i	x	0.3&0.5	5.6&-0.6	-0.9&-6.5	0.1&1.9	x
CCOc1ccccc1CNC(=O)C1Cc2cc(S(=O)(=O)N3CCCCC3)ccc2N1C(C)=O (stereo not given)	0.3	-4.5	x	i	-2.1	13.9	6.0	5.4	-1.6	6.2
CCOc1cc(C2C(C(=O)OCC(C)C)=C(C)N=C3SCCC(=O)N32)ccc1OC(C)=O (stereo not given)	-25.3	-3.7	-9.0	x	u	x	x	x	x	2.8
